Screening data deposited in PubChem BioAssay by several laboratories.
HNF4A DNA FP = change in binding of human HNF4 alpha to DNA | HNF4a-FITC DNA binding, fluorescence polarization, 1 h | activity change, % at 10 µM | 360,000 tested, 0.3% active | AID 1224865; in the data active means activity change above about 30%, passing the limit was not always enough;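 further: controls were the assay level and a saturating level of protein; the project sought stronger binding though the title names inhibitors; some compounds called inactive have numbers as strong as hits; positive values seem to mean higher polarization but the record does not say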
rRNA inh HTS = inhibits bacterial ribosomal RNA function over humanized ribosomes. E. coli WT GFP vs humanized-ribosome RFP mutants, fluorescence, 24 h; stronger effect = lower value; DMSO median 0, no signal -100. GFP signal change (wild-type ribosome), % (test concentration not listed). 350,000 tested, 1.6% active;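 active means significant combined selectivity score with lowered wild-type GFP, culture density cut under 30%, mutant RFP and density less affected; inactive means any of these conditions unmet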; further: one replicate is shown; some compounds called inactive have numbers as strong as hits
Vif TR-FRET = HIV-1 Vif–A3G interaction blockers – biochemical, TR-FRET, GST-Vif 1-94, biotin-A3G peptide, dose response retest, primary screen (AID 1117319) | TR-FRET GST-Vif / biotin-A3G peptide binding; higher % means a stronger effect; test concentration not given here; strong numbers were not always called active | one-dose inhibition, %; IC50 in µM for titrated hits | 260,000 tested, 0.57% active;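 active means above the screen mean plus three standard deviations and confirmed in dose response; inconclusive means results disagree or hit not tested in dose response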;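 further: Vif residues 1-94 fused to GST binding biotinylated APOBEC3G peptide 110-148; 0% = full assay without inhibitor and 100% = GST in place of GST-Vif; retest series ran down from 100 µM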
AF4-AF9 inh = blocks AF4 peptide binding to human AF9. P42568. inhibition, % at 10 µM. 350,000 tested, 0.47% active. AlphaScreen, biotin-AF4 peptide binding to FLAG-AF9;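 active means every replicate reaching a set inhibition limit, whatever the replicate mean, cut at about 25% in these data; inconclusive means mean inhibition reaches that limit but some replicates miss it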;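 further: 0% = plate neutral control median and 100% = total signal loss; the record names both 10 and 1 µM as test concentration; the first replicate is given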
Target sequence (P42568 whole entry, looked up): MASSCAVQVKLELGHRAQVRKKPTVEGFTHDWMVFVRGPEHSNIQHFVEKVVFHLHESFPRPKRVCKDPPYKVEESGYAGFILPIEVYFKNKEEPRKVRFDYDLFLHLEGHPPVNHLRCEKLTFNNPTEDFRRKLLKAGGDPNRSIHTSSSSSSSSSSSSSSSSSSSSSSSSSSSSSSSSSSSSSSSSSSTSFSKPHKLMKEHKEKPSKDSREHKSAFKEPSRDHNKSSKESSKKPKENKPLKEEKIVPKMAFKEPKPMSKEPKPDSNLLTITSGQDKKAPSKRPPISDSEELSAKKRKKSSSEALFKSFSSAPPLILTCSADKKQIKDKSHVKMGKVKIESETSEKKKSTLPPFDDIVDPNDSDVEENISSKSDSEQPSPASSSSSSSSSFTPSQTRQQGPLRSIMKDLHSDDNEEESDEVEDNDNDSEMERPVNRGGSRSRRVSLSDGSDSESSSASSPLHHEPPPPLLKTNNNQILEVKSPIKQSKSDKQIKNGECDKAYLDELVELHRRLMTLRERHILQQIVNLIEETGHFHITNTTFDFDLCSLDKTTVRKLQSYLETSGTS
ALR inh = blocks human ALR sulfhydryl oxidase activity; P55789; inhibition, % (no concentration beside the values); purified ALR, DTT oxidation, H2O2 HRP-luminol luminescence; 290,000 tested, 3.8% active;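 active means mean and each replicate at 75% or more; inconclusive means only one of the two met; inactive means neither met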;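 further: stock transfer was 7.5 nL into about 7.5 µL; 0% = neutral wells and 100% = wells with inactivated enzyme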
Target sequence (P55789 whole entry, looked up): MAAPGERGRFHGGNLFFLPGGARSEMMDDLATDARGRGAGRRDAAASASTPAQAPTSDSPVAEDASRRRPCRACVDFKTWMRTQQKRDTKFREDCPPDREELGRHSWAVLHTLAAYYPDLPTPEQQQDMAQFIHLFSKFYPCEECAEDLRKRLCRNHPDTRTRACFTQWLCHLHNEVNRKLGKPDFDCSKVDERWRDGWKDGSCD
E coli growth = E. coli growth inhibition; Escherichia coli growth, OD600, 23 h; stronger effect = lower value; OD600 absorbance (test concentration not listed); 330,000 tested, 0.21% active; AID 1053175;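 active means OD600 absorbance below the run mean of sample wells minus 3.6 SD, in any replicate, cut at about 0.56 in these data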;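 further: stock transfer was 300 nL into about 60 µL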
FGF22 binding = shifts melting point of recombinant human FGF22 | Q9HCT0 | recombinant FGF22 thermal shift, SYPRO orange fluorescence; percent of sucrose octasulfate shift, DMSO zero | calls only at 9.99 µM | 340,000 tested, 1.5% active;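 active means melting point raised past a set limit in the mean and every replicate; inconclusive means no clear call; three in four hits are not shown here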
Target sequence (Q9HCT0 whole entry, looked up): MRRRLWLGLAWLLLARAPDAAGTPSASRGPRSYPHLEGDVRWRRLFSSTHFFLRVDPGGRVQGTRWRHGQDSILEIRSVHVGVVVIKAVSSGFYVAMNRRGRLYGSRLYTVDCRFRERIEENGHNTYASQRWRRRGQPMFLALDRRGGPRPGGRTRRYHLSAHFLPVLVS
rRNA inh HTS OD600 = also measured in rRNA inh HTS; calls as there; OD600 change, %; measured here: OD600 growth;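 optical density of the mix in the first replicate; 0 = DMSO median and -100 = no signal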
rRNA inh HTS RFP = recorded beside rRNA inh HTS, whose call it bears; RFP signal change, %; measured here: RFP humanized mutant strains;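 first replicate; 0 = DMSO median and -100 = no signal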
* marks the source's active call; other numbers are inactive results; i = inactive; ? = inconclusive; . = no result given; & = joins results of further samples.

SMILES	HNF4A DNA FP	rRNA inh HTS	rRNA inh HTS OD600	rRNA inh HTS RFP	Vif TR-FRET	AF4-AF9 inh	ALR inh	E coli growth	FGF22 binding
Cn1c(=O)c2c(-c3ccccc3)n(-c3cccc(Br)c3)cc2n(C)c1=O	1.6	-3	-1	7.6	.	-1.2	.	.	i
CC(C)C[C@@H](CNCC(=O)[C@H](C)NC(=O)c1[nH]cnc1C(=O)N[C@@H](C)CN)NC(=O)c1nc[nH]c1C(=O)N[C@@H](C)C(=O)O	1.7	9	2	-1.5	-2%	4.4	.	.	i
O=C(CCNC(=O)N1CCn2c1nc1ccccc12)NCc1ccc(F)cc1	0.6	-1	-4	2.0	-4%	-2.4	-13	0.7	i
O=C(c1cccnc1)C1Cc2ccccc2C1=O (configuration not stated)	-0.1	2	7	-2.3	4%	0.7	-119	.	i
COc1cc(CNc2ccc3[nH]c(=O)[nH]c3c2)ccc1OCc1c(F)cccc1Cl	3.9	-2	3	5.7	15%	1.3	61	0.75	i
Oc1ccc2ccccc2c1CN1CCN(c2ccccc2)CC1	3.5	.	.	.	-4%	.	-9	0.71	.
O=C(Nc1ccc(OCc2ccccc2)cc1)c1cccnc1	-4.6	.	.	.	-2%	.	-7	0.7	.
COCCNC(=O)C(C)OC(=O)C1=Cc2ccccc2OC1 (configuration not stated)	-0.1	2	4	0.8	.	-0.8	-14	0.66	i
COCCn1nnnc1CN(CCc1ccccc1)Cc1cc2cc(OC)ccc2[nH]c1=O	3.8	.	.	.	-9%	.	-21	0.64	.
COCCCNC(=O)N1c2ccccc2Sc2ccccc21	-0.6	-4	-12	-2.3	-6%	5.1	3	0.67	i
CC1CC(=O)Nc2ccccc2N1C(=O)CN1CCN(C=O)CC1 (configuration not stated)	-0.1	5	8	-0.6	5%	-2.0	-12	0.68	i
CN1CCN(C(=O)C2(NC(=O)NCc3ccccc3)CCCCC2)CC1	-1.8	.	.	.	-4%	.	0	0.78	.
CCOc1ccc(N/C(N)=N/c2nc(C)c(C)c(=O)[nH]2)cc1	3.3	9	11	-0.2	-4%	-3.0	-13	0.67	i
CNc1nc(C)c([N+](=O)[O-])c(Nc2ccc(OC)cc2)n1	2.2	7	10	0.2	2%	-31	1	0.67	i
C[C@@H]1CN([C@H](C)CO)C(=O)c2cccc(NC(=O)c3ccc(-c4nccs4)cc3)c2O[C@H]1CN(C)C(=O)Nc1ccc(F)cc1	.	1	1	-1.7	.	-0.1	.	.	i
O=C(CC1C(=O)NCCN1CC1CCCCC1)NCc1cc(F)ccc1F (configuration not stated)	-2.9	-4	-7	1.1	10%	1.9	-3	0.66	i
CCn1nnnc1SCC(=O)N1N=C(c2cccs2)CC1c1cccs1 (configuration not stated)	0.1	-13	-22	-1.7	5%	3.7	.	0.72	i
Cc1cccc(-n2c(C)nc3cc(C(=O)N4CCOCC4)ccc32)c1	4.0	0	6	0.0	0%	-1.1	0	0.7	i
COc1cc(CC(=O)N(c2ccccc2)c2nc(C)cs2)cc(OC)c1OC	2.8	-7	-3	-3.2	.	3.5	7	0.72	i
CN(Cc1cnccn1)Cc1nc(Cc2ccccc2Cl)no1	-4.0	6	11	-0.4	.	-0.7	.	0.71	.
COc1ccc(N(C)C(=O)c2cn(CC(C)C)c(=O)c3cc(OC)c(OC)cc23)c(OC)c1	0.6	-4	9	-5.0	-4%	1.8	-28	0.62	i
C=C(C)C1CC=C(C)/C(=N/NC(=O)c2ccc(NC(=O)c3cccc(C)c3)cc2)C1 (configuration not stated)	-2.6	-1	4	5.4	-1%	2.0	6	.	i
CCOc1cccc(CNCc2ccncc2)c1	-3.5	7	17	1.0	.	5.8	2	0.64	i
O=C1CCCCC1Sc1nnc(Nc2ccccc2)s1 (configuration not stated)	4.3	-26	-24	-4.8	.	-0.3	5	0.66	i
Nc1ncnc2c1ncn2[C@@H]1O[C@H](CNC(=O)[C@@H]2CCC(=O)N2)[C@@H](O)[C@H]1O	0.8	.	.	.	-4%	.	.	0.73	.

Some of the entries above in a different format:
| mol | HNF4A DNA FP | rRNA inh HTS | rRNA inh HTS OD600 | rRNA inh HTS RFP | Vif TR-FRET | AF4-AF9 inh | ALR inh | E coli growth | FGF22 binding |
| --- | --- | --- | --- | --- | --- | --- | --- | --- | --- |
| O=C(c1cccnc1)C1Cc2ccccc2C1=O (configuration not stated) | -0.1 | 2 | 7 | -2.3 | 4% | 0.7 | -119 | . | i |
| COc1cc(CNc2ccc3[nH]c(=O)[nH]c3c2)ccc1OCc1c(F)cccc1Cl | 3.9 | -2 | 3 | 5.7 | 15% | 1.3 | 61 | 0.75 | i |
| Oc1ccc2ccccc2c1CN1CCN(c2ccccc2)CC1 | 3.5 | . | . | . | -4% | . | -9 | 0.71 | . |
| O=C(Nc1ccc(OCc2ccccc2)cc1)c1cccnc1 | -4.6 | . | . | . | -2% | . | -7 | 0.7 | . |

Continuation:
SMILES	HNF4A DNA FP	rRNA inh HTS	rRNA inh HTS OD600	rRNA inh HTS RFP	Vif TR-FRET	AF4-AF9 inh	ALR inh	E coli growth	FGF22 binding
CC1CC(OCC(O)CN2CCN(Cc3ccccc3)CC2)CC(C)(C)C1 (configuration not stated)	-1.3	.	.	.	4%	.	-7	0.71	.
CCN(CC)c1ccc(S(=O)(=O)N2CCOCC2)cc1NC(=O)CN1C(=O)NC2(CCCC2)C1=O	0.7	7	-2	3.5	.	-0.9	11	0.65	i
C[C@@H]1CN([C@H](C)CO)C(=O)c2cc(NC(=O)Nc3cccc4ccccc34)ccc2O[C@H]1CN(C)Cc1ccc(Oc2ccccc2)cc1	.	0	3	-1.7	.	2.6	.	.	i
COc1ccccc1C(=O)Nc1ccc(NC(=O)c2ccco2)c(C)c1	-0.6	.	.	.	-2%	.	0	0.71	.
c1coc(CNc2c3c(nc4ncnn24)CCCC3)c1	2.2	.	.	.	0%	.	0	0.66	.
COc1cc(NC(=O)c2nnn(Cc3ccc(SC)cc3)c2N)cc(OC)c1	4.3	-9	-6	3.7	57%	-4.5	.	0.73	i
Cc1cccc(NC(=S)/N=C(\N)Nc2nc(C)c3ccc(C)cc3n2)c1	-7.9	.	.	.	-7%	.	-14	.	.
O=C(O)CCc1ccc(NCc2cccc(Oc3ccccc3)c2)cc1	0.0	-44	-72	-17	.	0.5	32	0.66	i
O=C(Nc1cc(-c2ccccc2)[nH]n1)c1ccccc1	4.3	.	.	.	4%	0.5	11	0.63	i
CO[C@@H](C(=O)N(C)C[C@H]1OCc2ccccc2-c2c(n(C)c3ccccc23)C(=O)N([C@H](C)CO)C[C@H]1C)c1ccccc1	.	0	-6	-3.1	.	1.0	.	.	i
C#CC1(NC(=O)NS(=O)(=O)c2ccc(C)cc2)CCCCC1	4.3	-4	-11	5.4	10%	-3.1	-1	0.64	i
COc1ccc(C2c3ccc4ccccc4c3Oc3ncn(CCO)c(=N)c32)cc1OC (configuration not stated)	3.8	-3	-28	12	-12%	.	-110	.	.
Cc1nn2c(-c3ccccn3)ccnc2c1Cl	-4.4	-8	-16	-5.0	20%	1.5	.	0.68	.
Cc1cccc(C)c1NC(=O)CN(c1ccccn1)S(=O)(=O)c1ccccc1	2.9	5	4	-2.1	-6%	2.1	-25	0.71	i
Cc1cc(C(=O)COC(=O)CCCN2C(=O)c3ccccc3C2=O)c(C)n1C	-2.4	.	.	.	26%	.	14	0.73	.
Cc1nc2ccccc2n1S(=O)(=O)c1ccc(F)cc1	-1.6	1	14	0.1	-1%	-1.6	-1	0.75	i
O=C(COC(=O)Cc1ccc(S(=O)(=O)N2CCOCC2)s1)Nc1ccc2c(c1)OCO2	1.1	.	.	.	1%	.	-13	0.73	.
Cc1csc(NC(=O)/C=C/c2ccc3c(c2)OCO3)n1	-1.6	-16	9	9.2	10%	-0.9	-4	0.69	i
O=C(c1cccnc1)N1CC[C@@H]2[C@H](CO)Nc3ccc(-c4ccc(F)cc4)cc3[C@@H]21	.	-2	-11	-0.5	.	-1.2	.	.	i
CN1CCN(C(=O)C[C@@H]2CC[C@H]3[C@@H](COC[C@H](O)CN3C(=O)C3CCOCC3)O2)CC1	.	4	0	16	.	-12	.	.	i
O=C(C[C@@H]1CC[C@H]2[C@@H](COC[C@H](O)CN2Cc2nccs2)O1)NCc1ccc(-c2ccccc2)cc1	.	-7	-15	3.2	.	-1.6	.	.	i
CCOC(=O)[C@]12CCC=C1N(Cc1cccc3ccccc13)C(=O)[C@H](CC(=O)N1CCC(c3ccccc3)CC1)C2	2.1	.	.	.	.	-7.1	.	.	i
Cc1noc(C)c1NC(=O)Nc1cccc2c1O[C@H](CN(C)C(=O)Nc1ccccc1)[C@H](C)CN([C@H](C)CO)C2=O	.	1	-1	-0.5	.	2.0	.	.	i
S=C(NCc1ccco1)N1CCN(c2ccc(Cl)cc2)CC1	-5.1	-32	-27	-4.6	.	-1.7	.	0.72	i
COc1cccc(S(=O)(=O)N[C@H]2CC[C@@H](CC(=O)NCc3ccc(F)cc3)O[C@@H]2CO)c1	.	1	-1	-2.8	.	-1.7	.	.	i
Continued:
SMILES	HNF4A DNA FP	rRNA inh HTS	rRNA inh HTS OD600	rRNA inh HTS RFP	Vif TR-FRET	AF4-AF9 inh	ALR inh	E coli growth	FGF22 binding
O=C(Nc1ccc(Cl)cc1)OCCn1nnnc1C(c1ccccc1)N1CCOCC1 (configuration not stated)	-0.3	.	.	.	23%	.	0	0.64	.
C=CCOC(=O)C1=C[C@@H](c2ccc3c(c2)OCO3)C[C@@H](OCc2ccc(CO)cc2)O1	-0.1	-6	-16	-3.9	-4%	-3.4&0.4	.	.	i
CCN(CC)c1ccc(C(=O)OCC(=O)Nc2sccc2C#N)cc1	3.0	-22	-22	2.8	5%	1.5	0	0.69	i
COc1cccc(CN(C)C(=O)c2cccnc2SC)c1OC	-2.2	12	8	-1.2	-6%	-0.3	-3	0.67	i
COc1cc2c(cc1OC)C[N+](C)(C)CC2	0.4	.	.	.	.	-5.3	-7	.	i
COc1cc(OC)cc(C(=O)NNC(=O)CNC(=O)c2ccc(Br)o2)c1	-2.4	8	6	1.5	1%	-0.4	8	0.7	i
CCCn1nnnc1SCC(=O)N1CCCc2ccccc21	0.9	.	.	.	7%	.	-7	0.74	.
Cc1ccc(OCCC(=O)OCC(=O)NCCNC(=O)COC(=O)CCOc2ccc(C)cc2)cc1	-4.2	2	12	2.7	-1%	0.3	.	.	i
COc1cc(/C=C2\SC(=O)N(CCNC(=O)c3cnc(C)cn3)C2=O)cc(OC)c1OC	-5.7	.	.	.	.	.	-8	0.7	.
CCCC(=O)NC(=S)Nc1cccc(NC(=O)c2ccccc2Cl)c1	3.5	.	.	.	.	.	42	0.72	.
CCN(Cc1ccccc1)C1CCN(Cc2ccc(SC)cc2)CC1	7.0	1	-4	1.5	-10%	4.2	-16	0.66	i
CC(C)COC(=O)N(C)C[C@@H]1OCc2cnnn2CCCC(=O)N([C@H](C)CO)C[C@@H]1C	-1.9	2&0	13&1	-3.1&-0.5	4%	-3.2&4.2&-2.2	.	.	i
CN(C)/C=C/C(=O)c1ccc(Br)cc1	1.0	-18	-16	-2.0	-1%	-4.1	17	0.67	i
CN(C)S(=O)(=O)c1ccc(NC(=O)CN2CCc3ccccc32)cc1	1.4	6	9	4.1	.	-9.9	.	.	i
COc1cc(NC(=S)Nc2ccccn2)cc(OC)c1	0.2	.	.	.	2%	.	54	0.66	.
COc1ccc(CNC(=O)c2cc(-c3ccccc3O)n[nH]2)cc1	-4.4	.	.	.	-8%	.	.	0.76	.
Cc1ccc(-c2ccc(CCC(=O)O)n2Cc2ccco2)cc1	0.8	.	.	.	31%	.	.	0.75	.
O=C(CCN1CCOCC1)Nc1cccc(Br)c1	-0.8	.	.	.	?	.	0	0.65	.

This is a subset; rates above refer to the full screens.
